# SARS PLpro yeast = qHTS of Yeast-based Assay for SARS-CoV PLP; S. cerevisiae expressing SARS-CoV PLpro, growth rescue; control for the full effect not named in the record; 0.19% of 330,000 active; AID 485353, 2010; Potency, µM (doses to about 32.9 µM), inactives show top-dose activity, positive = growth rescue; active means well fitted rising curve with a large enough effect; inconclusive means small, poorly fitted or top-dose-only effect; inactive means no such curve, though single readings can be large or run the other way; further: 0% is about no effect; nearly all actives have a fitted effect of over 55% in size; growth read by luminescence after 48 h
# Marburg entry inh = qHTS for inhibitors of binding or entry into cells for Marburg Virus; Potency, µM (titrated, usually from 37.8 µM), for inactives: top-dose activity change, negative = inhibition, usual class: inhibitors; Marburg virus pseudotyped entry inhibition, cell reporter; control for the full effect not named in the record; about a third of the inactives were read at about 46 µM; AID 540276, 2011; 1.8% of 300,000 active; active = well fitted inhibition curve with a large enough effect; inconclusive = small, poorly fitted or top-dose-only effect, or effect the other way; inactive = flat fitted curve, though single readings scatter; tested in HEK293 cells; about a fifth of its hits are not listed in these tables; further: on the % scale 0 is the no-effect control and ±100 the full control effect; luciferase read-out
# Cruzain Triton = qHTS Assay for Promiscuous and Specific Inhibitors of Cruzain (with detergent) | Cruzipain (Trypanosoma cruzi), P25779 | purified cruzain, Z-FR-AMC fluorescence, 0.01% Triton | Potency, µM, without a hit: max response, negative = inhibition, usual class: inhibitors | 0.43% of 200,000 active | AID 1478, 2009;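 further: plate controls were neutral wells for no effect and buffer without enzyme for full effect; nearly all actives have a fitted effect of over 40% in size; top concentration of the series not given in the record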
# Target sequence (P25779 123-467 limits assumed): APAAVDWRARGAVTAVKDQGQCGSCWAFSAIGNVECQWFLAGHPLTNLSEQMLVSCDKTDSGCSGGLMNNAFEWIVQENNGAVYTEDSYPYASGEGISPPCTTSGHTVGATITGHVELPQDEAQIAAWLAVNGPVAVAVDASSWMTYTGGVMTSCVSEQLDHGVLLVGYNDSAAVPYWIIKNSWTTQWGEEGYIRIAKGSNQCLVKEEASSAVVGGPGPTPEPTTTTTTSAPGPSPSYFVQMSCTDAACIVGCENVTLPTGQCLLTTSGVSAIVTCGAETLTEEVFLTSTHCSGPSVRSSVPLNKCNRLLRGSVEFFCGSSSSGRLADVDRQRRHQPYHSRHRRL
#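 Purified cruzain (1.5 nM final) was preincubated with compounds for 15 min at room temperature in 100 mM sodium acetate pH 5.5, 5 mM DTT, 0.01% Triton X-100. Reaction started with 2 uM Z-FR-AMC; AMC fluorescence change over 60 s gave activity.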
# NS1 inh = qHTS Assay for Inhibitors of Influenza NS1 Protein Function. S. cerevisiae slowed by influenza A NS1, growth recovery by OD600. Potency, µM (top dose mostly 46.1 µM), for inactives: at the top dose activity, positive = more growth. 0.4% of 270,000 active; active means well fitted rising curve with a large enough effect; inconclusive means small, poorly fitted or top-dose-only effect; inactive means no such curve, though single readings can be large or run the other way; further: nearly all actives have a fitted effect of over 50% in size
#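 OD600 was taken as the measure of yeast growth restored by compound in an NS1-expressing S. cerevisiae strain. Cells had been washed out of glucose medium and diluted 1:100 into galactose -URA medium, pH 6.0.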
# Cruzain noTriton = qHTS Assay for Promiscuous and Specific Inhibitors of Cruzain (without detergent) | Potency, µM, for the others: max response, negative = inhibition, hits mostly inhibitors | purified cruzain, Z-FR-AMC fluorescence, no detergent | AID 1476, 2009 | 2.3% of 200,000 active | Cruzipain (Trypanosoma cruzi), P25779;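 further: plate controls were enzyme without inhibitor for no effect and buffer without enzyme for full effect; nearly all actives have a fitted effect of over 40% in size; top concentration of the series not given in the record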
#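 Detergent-free condition (0.00005% Triton X-100) in acetate buffer pH 5.5 with DTT. 1.5 nM enzyme and compound were pre-mixed 15 min, then 2 uM Z-FR-AMC substrate added; reaction progress from fluorescence change between first and third reads (60 s).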
# StopGo reporter = High Throughput Screening for Foot and Mouth Disease Virus Antivirals; human cells with a luciferase reporter of 2A StopGo recoding; control for the full effect not named in the record; Potency, µM (doses to about 57.9 µM), inactives show at the top dose signal change, negative = less light; 1.2% of 410,000 active; active = well fitted falling curve with a large enough effect; inconclusive = small, poorly fitted or top-dose-only effect; inactive = no such curve, though single readings can be large or run the other way; tested in HEK293T cells; further: on the % scale 0 is the no-effect control and ±100 the full control effect; nearly all actives have a fitted effect of over 45% in size; luciferase light after 4 h
# Lassa entry inh = qHTS for Inhibitors of binding or entry into cells for Lassa Virus; Lassa virus pseudotype entry inhibition, cell reporter; control for the full effect not named in the record; Potency, µM (top dose mostly 37.9 µM), for the others: at the highest dose activity change, negative = inhibition, usual class: inhibitors; 1.2% of 300,000 active; AID 540256, 2011; active means well fitted inhibition curve with a large enough effect; inconclusive means small, poorly fitted or top-dose-only effect, or effect the other way; inactive means flat fitted curve, though single readings scatter; tested in HEK293 cells; further: on the % scale 0 is the no-effect control and ±100 the full control effect; nearly all actives have a fitted effect of over 50% in size; luciferase read-out
# RE007 growth inh = qHTS Assay for Inhibitors of the HIV-1 protein Vpr; S. pombe RE007 Vpr strain, BacTiter-Glo ATP luminescence, 24 h; control for the full effect not named in the record; Potency, µM (titrated, usually from 92.2 µM), for the others: at the top dose activity change, negative = less growth; 0.21% of 360,000 active; active = well fitted falling curve with a large enough effect; inconclusive = small, poorly fitted or top-dose-only effect; inactive = no such curve, though single readings can be large or run the other way;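 further: on the % scale 0 is the no-effect control and ±100 the full control effect; nearly all actives have a fitted effect of over 50% in size; the assay follows cell death caused by Vpr and the record does not say whether a fall means rescue or toxicity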
#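 Fission yeast strain RE007, carrying one chromosomally integrated HIV-1 vpr copy, was seeded at OD 0.01 in PMG+AL medium with 23 nL pinned compound. After 24 h at 30 °C and 99% humidity, viability was read by BacTiter-Glo luminescence.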
# * marks the source's active call; other numbers are inactive results; ? = inconclusive; . = no result given; & = joins results of further samples; [ ] = remark or other dose. Unless noted, the call rests on the fitted dose curve; in most records, active means well fitted curve in the direction sought with a large enough effect; inconclusive means small, poorly fitted or top-dose-only effect, or another doubt; inactive means no such curve, though single readings can be large; an effect the other way counts as inactive or inconclusive. Potency means the concentration at half of the fitted maximal effect. Hits appear at their usual frequency; 4.7% or so of the library scored in one or more.
SMILES,SARS PLpro yeast,Marburg entry inh,Cruzain Triton,NS1 inh,Cruzain noTriton,StopGo reporter,Lassa entry inh,RE007 growth inh
CCC(=O)Nc1cc(-c2nnc(OC)c3ccccc23)ccc1N1CCOCC1,3%,-10%[46.1 µM],5.5%,-15%,1%,-8%,-23%,-2%
CCn1c(=O)c2cc(C(=O)NCCC(C)C)sc2c2ccccc21,3%,.,.,-3%,.,10%,.,-4%
CC(C)(C)NC(=O)CSc1nnc(Cc2ccc3c(c2)OCO3)n1C1CCCCC1,-2%,0%,5.0%,-3%,-4%,-13%,9%,-6%
CCN1CCN(c2nc3ccccc3nc2NS(=O)(=O)c2ccc(NC(C)=O)cc2)CC1,-2%,.,.,-13%,.,52%[activator],.,9%
CCCc1nnc(SCC(=O)Nc2ccccc2F)o1,-3%,0%[46.1 µM],.,-7%,.,11%,.,-12%
Cc1ccc(S(=O)(=O)N2CCN(C(=O)CSc3nc4ccccc4c(=O)[nH]3)CC2)c(C)c1,.,-19%&-19%,-2.2%,-10%,-12%,?,-25%,-7%
CCOc1ccccc1OCC(=O)Nc1nc2ccccc2[nH]1,0%,2%[46.1 µM],.,.,.,13%,.,4%
O=C(CCNC(=O)C1CCN(S(=O)(=O)c2ccccc2)CC1)NCc1cccc(Cl)c1,-4%,.,.,-25%,.,-10%,.,3%
Cn1c2ccccc2c2nnc(NN)nc21,0%,.,.,2%,.,-8%,.,8%
CC(Sc1nc(-c2ccccc2)cc(C(F)(F)F)n1)C(=O)N1CCOCC1 (stereo not given),?,?,1.1%,13%,19%,-29%,?,21%
COCCNC(=O)C(c1ccco1)N(C(=O)Cn1nnc2ccccc21)c1cc(C)ccc1C (stereo not given),-1%,8%,-4.2%,-14%,13%,34%[activator],-12%,3%
COc1ccccc1CNC(=O)CNC(=O)c1ccc(Br)o1,0%,14%,.,7%,.,31%[activator],8%,0%
CCOc1ccc(C2c3c(oc4ccccc4c3=O)C(=O)N2c2nnc(C)s2)cc1OC (stereo not given),.,0%[46.1 µM],-0.1%,.,23%,-12%,13%[46.1 µM],.
C=CCN1CCN(Cc2cnc(Cl)s2)CC1,-8%,8%,7.4%,4%,1%,15%,19%,13%
CCOc1ccc(C2C(C#N)=C(N)SC(N)=C2C#N)c(OCC)c1,-8%,0%&0%[46.1 µM],-11%,-10%,-1%,-29%,3%,?
Cc1ccc(N(C)S(=O)(=O)c2ccc3c(c2)NC(=O)C(C)S3)cc1 (stereo not given),4%,.,.,19%,.,-18%,.,-3%
Cc1cc(NC(=O)CSc2nc(-c3cccc(F)c3)nc3c2c(=O)n(C)c(=O)n3C)no1,.,.,5.0%,.,13%,-12%,2%[46.1 µM],.
Cc1onc(NC(=O)CSCC(=O)O)c1Br,0%,7%[46.1 µM],.,0%,.,1%,-15%[46.1 µM],-17%
Cc1ccc(CNC(=O)C2CCC(CNS(=O)(=O)c3cccc4cccnc34)CC2)cc1 (stereo not given),9%,.,.,8%,.,24%,.,0%
CNC(=S)Nc1cc(OC)c(NC(=O)c2ccco2)cc1OC,-2%,18%[46.1 µM],.,-1%,.,-14%,-14%[46.1 µM],2%
CCN(CC)S(=O)(=O)c1ccc(N2CCCC2)c(NC(=O)c2c(-c3ccccc3)noc2C)c1,0%,0%[46.1 µM],.,8%,.,-4%,2%,9%
COc1ccccc1C(=O)NC1CCCCCCC1,6%,9%,-1.5%,-15%,10%,40%[activator],20%,?
CN(C)C(=O)C1CC(=O)OC12CCCCC2 (stereo not given),1%,.,.,2%,.,-3%,.,4%
CCCCSc1nc(SCC(=O)NCc2ccco2)c2c3c(sc2n1)COC(C)(CC)C3 (stereo not given),0%,-3%,-20%,24%,?,15%,3%,-5%[3.69 µM]
CC(C)(C)OC(=O)N1CC=C2C(C#N)=C(N)C(C#N)(C#N)[C@H](c3cccnc3)[C@H]2C1,0%,0%,0.0%,8%,17%,0%,-13%,14%
CC(C)(C)NC(=O)C(=O)N/N=C/c1ccc(Br)cc1,-3%,5%,-2.5%,-8%,?,28%,-1%,-13%
CCOc1ccc(NS(=O)(=O)c2c(C(=O)N3CCCCCC3)c(C)n(C)c2C)cc1,-2%,.,.,-9%,.,4%,.,0%
Cc1nc(NC(=O)COC(=O)C2=NNC(=O)CC2)c(Cl)cc1Cl,3%,?,.,2%,.,-6%,?,12%
Cc1ccc(Cn2nc(C)c(NC(=O)CCCn3nc(C)c([N+](=O)[O-])c3C)c2C)cc1,13%,-33%,-2.2%,-5%,?,-27%,-21%,-23%
Cc1cc(Cl)ccc1NC(=O)c1cccc(NC(=O)N2CCSc3ncccc32)c1,.,.,-9.0%,.,8%,?,-9%[46.1 µM],.
Cc1c(C(=O)OCc2nc3ccsc3c(=O)[nH]2)oc2ccccc12,5%,?,.,.,.,-12%,14%,2%
CCC(C)(C)NC(=O)C(c1ccc(O)cc1)N(CCOC)C(=O)CCC(=O)Nc1nccs1 (stereo not given),2%,0%[46.1 µM],.,-77%,.,-10%,-10%,1%
CN1/C(=C\C(=O)COC(=O)c2ccccc2O)C(C)(C)c2ccccc21,-3%,.,.,-43%,.,-28%,.,23%
COc1cc(C)c(S(=O)(=O)Nc2ccccc2F)cc1C,?,-20%,-0.2%,-41%,3%,4%,3%,22%
Cc1ccc(CC(=O)N2CC(C)OC(C)C2)cc1 (stereo not given),8%,0%,9.7%,-1%,3%,6%,-5%,-4%
CSc1nc(-c2ccco2)nn1C(=O)c1ccc(C)cc1,1%,-13%,-1.8%,-44%,-11%,-22%,?,-7%
O=C(Nc1ccc2oc(-c3cccnc3)nc2c1)c1ccc(-c2ccc(Cl)cc2)o1,.,.,-1.5%,.,6%,12%,20%[46.1 µM],.
COc1ccc(-n2c(SCc3ccccc3F)nc3c([nH]c4ccccc43)c2=O)cc1,.,.,1.0%,.,3%,0%,6%[46.1 µM],.
C/C(=N\NC(=O)CNc1ccccc1Cl)C(C)(C)C,-6%,-2%,3.8%,-6%,-4%,53%[activator],-22%,4%
CC1CC(C)CN(C(=O)c2nn(C)c3c2CS(=O)(=O)c2ccccc2-3)C1 (stereo not given),13%,1%[46.1 µM],.,?,.,-9%,-16%[46.1 µM],-6%
N#Cc1c(N)c(C(=O)c2ccccc2)n2c1CCCC2,3%,18%,-3.2%,-2%,-5%,-2%,9%,2%
CC(=O)C1C(c2ccc(C)cc2)c2c(n[nH]c2C)CC1(C)O (stereo not given),-5%,-3%,0.2%,5%,5%,-3%,-1%,10%
COc1cccc(CNC(=O)CCNC(=O)c2ccccc2OC)c1,-4%,2%[46.1 µM],.,0%,.,-5%,?,5%
CCN(Cc1ccccc1)C(=O)Cn1c(=O)n(CC(=O)N2CCCCC2)c(=O)c2sccc21,-4%,.,.,5%,.,-21%,.,7%
CCN(CC)C(=O)[C@H]1C[C@H](CC(=O)NCCc2ccccn2)C(=O)N2CCc3c([nH]c4ccc(Cl)cc34)[C@]12C,20%,0%,.,.,.,-10%,.,3%
O=C(OCn1nnc2ccccc2c1=O)c1cc2ccccc2o1,-1%,.,.,9%,.,-17%,.,-1%
O=C(Nc1ccc(OC(F)(F)F)cc1)C1CC(c2ccc(F)cc2)=NO1 (stereo not given),-3%,22%[46.1 µM],.,.,.,-6%,-22%[46.1 µM],-10%
CCc1cccc(C)c1NC(=O)CN1CCN(S(=O)(=O)c2ccc(C(C)(C)C)cc2)CC1,.,-24%[46.1 µM],.,.,.,-24%,-3%,-1%
COc1cc2ccccc2cc1C(=O)N(CCN(C)C)c1nc2ccc(Br)cc2s1,5%,.,.,-8%,.,-28%,.,-9%
COc1cccc(CNC(=O)CCC2CCCN(C(=O)c3cc(C)[nH]n3)C2)c1 (stereo not given),1%,-3%[46.1 µM],.,-3%,.,1%,0%[46.1 µM],-7%
Cc1cc(C)nc(Nc2n[nH]c(-c3ccccc3C)n2)n1,-1%,.,.,-2%,.,21%,.,-25%
O=C1C2C3CCC(C3)C2C(=O)N1c1ccc(OS(=O)(=O)c2ccccc2)cc1 (stereo not given),0%,?,.,-6%,.,9%,?,-1%
COCCNC(=O)COCc1cc(-c2ccc3c(c2)OCO3)on1,-1%,.,.,0%,.,23%,.,-8%
O=C(N=C1N=C2C=CC(Br)=CN2Cc2ccccc21)c1ccc([N+](=O)[O-])cc1[N+](=O)[O-],-2%,-9%[46.1 µM],.,-2%,.,26%,5%,-5%
N/C(Cc1ccc([N+](=O)[O-])cc1)=N\OC(=O)c1ccco1,-1%,?,.,-3%,.,9%,?,11%

# Of the compounds above, these have bromine.
SMILES,SARS PLpro yeast,Marburg entry inh,Cruzain Triton,NS1 inh,Cruzain noTriton,StopGo reporter,Lassa entry inh,RE007 growth inh
COc1ccccc1CNC(=O)CNC(=O)c1ccc(Br)o1,0%,14%,.,7%,.,31%[activator],8%,0%
Cc1onc(NC(=O)CSCC(=O)O)c1Br,0%,7%[46.1 µM],.,0%,.,1%,-15%[46.1 µM],-17%
CC(C)(C)NC(=O)C(=O)N/N=C/c1ccc(Br)cc1,-3%,5%,-2.5%,-8%,?,28%,-1%,-13%
COc1cc2ccccc2cc1C(=O)N(CCN(C)C)c1nc2ccc(Br)cc2s1,5%,.,.,-8%,.,-28%,.,-9%
O=C(N=C1N=C2C=CC(Br)=CN2Cc2ccccc21)c1ccc([N+](=O)[O-])cc1[N+](=O)[O-],-2%,-9%[46.1 µM],.,-2%,.,26%,5%,-5%

# Bioassay records (PubChem)
